gsp antag: gsp mutant antagonism; gsp-mutant cells, cAMP HTRF, 30 min; control for the full effect not named in the record; Potency, µM (series often up to 76.9 µM), inactives show at the top dose activity change, negative = inhibition, usual class: inhibitors; 0.4% of 340,000 active; AID 624288; active = falling curve of any shape with a large fitted effect; inconclusive = falling curve, mostly with a smaller effect; inactive = flat or rising curve; cell line not stated here;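 also: intracellular cAMP measured with PDE inhibitor Ro 20-1724 present during compound exposure; potency is read from the fitted curve at half-maximal effect; % is scaled to controls: 0 for no effect and ±100 for the full control effect; nearly all actives have a fitted effect of over 65% in size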
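G418-selected cells were plated in DMEM/10% FBS for 16-24 h at 37C, then treated with compounds plus the PDE inhibitor […] (300 uM solution added) for 30 min at 37C. Intracellular cAMP was measured by HTRF after 30 min lysis at room temperature.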
ClpP mod: qHTS Assay for Activators of ClpP. ATP-dependent Clp protease proteolytic subunit (Bacillus subtilis (strain 168)), P80244. Potency, µM (series often up to 57.5 µM), for the others: at the top dose activity change, negative = active. 1.9% of 340,000 active. purified B. subtilis ClpP, FRET peptide cleavage, 20 min. AID 651965, 2013; active = well fitted falling curve with a large enough effect; inconclusive = small, poorly fitted or top-dose-only effect; inactive = no such curve, though single readings can be large or run the other way; also: potency is read from the fitted curve at half-maximal effect; the source files actives as falling curves though it sought activators and does not explain the sign; nearly all actives have a fitted effect of over 65% in size; many hits overshoot -100%
Target sequence (P80244 whole entry, looked up): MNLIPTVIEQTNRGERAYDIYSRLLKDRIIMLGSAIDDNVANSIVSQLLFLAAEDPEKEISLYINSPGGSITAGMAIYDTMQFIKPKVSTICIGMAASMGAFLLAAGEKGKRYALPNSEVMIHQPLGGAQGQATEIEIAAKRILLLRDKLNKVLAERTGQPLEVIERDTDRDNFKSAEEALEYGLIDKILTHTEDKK
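Buffer: 100 mM Tris/HCl pH8, 100 mM KCl, 0.05% low protease BSA, 2.5% glycerol, 0.01% Tween-20. ClpP 10 microg/mL final; 20 min RT; delta FRET normalized to ADEP and DMSO controls.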
Sfp inh: inhibitors of Bacillus subtilis Sfp phosphopantetheinyl transferase; Biochemical Sfp PPTase activity, qHTS; Potency, µM, for inactives: max response, negative = inhibition, usual class: inhibitors; AID 1490; Q9F4F7; 3.5% of 310,000 active; active = well fitted inhibition curve with a large enough effect; inconclusive = small, poorly fitted or top-dose-only effect, or another doubt; inactive = no such curve, though single readings can be large or run the other way;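 also: the enzyme is Sfp with the accession as filed and its product quenches rhodamine fluorescence; potency is read from the fitted curve at half-maximal effect; 0% = enzyme reaction without inhibitor and -100% = no enzyme wells; top concentration of the series not given in the record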
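Reaction rates are the 30-min fluorescence difference (ex 525, em 598 nm) in wells containing 15 nM Sfp, 5 uM rhodamine-CoA and 12.5 uM BHQ-2-YbbR at pH 7.6 with 10 mM MgCl2.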
TRPV1 PAM: human TRPV1 potentiation; Q8NER1; TRPV1-expressing cells, Fluo-8 calcium influx, capsaicin EC20 potentiation; host cell line not named in the record; control for the full effect not named in the record; potentiation, % at 8.33 µM; 0.02% of 320,000 active; active means potentiation above 80%; inconclusive means 30% to 80%; inactive means below 30%; also: 0% is about no effect
Target sequence (Q8NER1 whole entry, looked up): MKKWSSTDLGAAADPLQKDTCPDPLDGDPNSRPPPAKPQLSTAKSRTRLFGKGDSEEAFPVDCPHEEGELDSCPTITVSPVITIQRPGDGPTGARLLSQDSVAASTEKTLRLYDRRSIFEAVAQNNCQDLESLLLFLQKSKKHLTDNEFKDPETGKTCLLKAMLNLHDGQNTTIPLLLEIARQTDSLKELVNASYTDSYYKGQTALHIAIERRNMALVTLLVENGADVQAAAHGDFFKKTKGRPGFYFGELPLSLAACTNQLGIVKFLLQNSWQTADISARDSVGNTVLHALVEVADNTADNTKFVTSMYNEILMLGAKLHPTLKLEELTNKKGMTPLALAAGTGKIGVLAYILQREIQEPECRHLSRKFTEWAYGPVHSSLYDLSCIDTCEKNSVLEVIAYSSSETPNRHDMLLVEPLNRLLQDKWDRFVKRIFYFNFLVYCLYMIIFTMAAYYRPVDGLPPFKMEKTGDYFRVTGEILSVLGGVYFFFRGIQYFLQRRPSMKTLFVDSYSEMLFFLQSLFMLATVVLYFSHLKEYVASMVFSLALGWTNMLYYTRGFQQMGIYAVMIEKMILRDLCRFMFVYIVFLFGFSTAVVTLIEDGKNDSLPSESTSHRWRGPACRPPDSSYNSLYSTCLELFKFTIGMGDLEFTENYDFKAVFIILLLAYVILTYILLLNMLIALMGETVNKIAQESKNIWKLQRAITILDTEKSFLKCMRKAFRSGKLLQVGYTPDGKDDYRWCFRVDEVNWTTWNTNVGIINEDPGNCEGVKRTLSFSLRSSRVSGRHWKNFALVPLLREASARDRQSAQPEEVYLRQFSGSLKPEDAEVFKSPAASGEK
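Cells expressing TRPV1 were dye-loaded with Fluo-8 and read kinetically: 10 s baseline, 3 min after compound (agonist portion), then 2 min after EC20 capsaicin (allosteric enhancer portion). Calcium-bound dye fluorescence at 480/520 nm.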
Menin-MLL FL inh: menin-MLL binding inhibition, fluorescein peptide | Fluorescence polarization, fluorescein-MLL peptide displacement from menin | FP activity change, % at 61.4 µM | 290,000 tested, under 10 active; inconclusive = falling polarisation curve, or a change in total fluorescence; inactive = total fluorescence flat and polarisation flat or rising; no compound was filed as active; the % refers to the polarisation; negative = inhibition;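 also: % of control where 0% means no effect; inhibitors lower the polarisation; unlabelled MLL peptide was the positive control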
CtBP-E1A inh: blocks the CtBP interaction with E1A. AlphaScreen GST-E1A/His-CtBP binding, 1536-well; hits give low values; control for the full effect not named in the record. activity change, % (no concentration beside the values). 0.49% of 340,000 active; in the data active means activity change below about -65%; inconclusive means about -30% to -65%; inactive means above about -30%; also: % is scaled to controls: 0 for no effect and ±100 for the full control effect; compound concentration not given in the record
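AlphaScreen with 125 nM GST-E1A and 125 nM His-CtBP (5X stocks) in Tris pH 8.0, 300 mM NaCl, BSA, Tween 20, TCEP. Compounds preincubated 2 h at 37 deg C, then glutathione donor/nickel acceptor beads added for 1 h at 37 deg C in dark.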
gsp agonist: gsp mutant agonism; AID 624287; Potency, µM (highest dose often 76.9 µM), for the others: at the top dose activation (cAMP increase), actives largely listed as activators; 0.13% of 340,000 active; gsp mutant cells, cAMP HTRF, 30 min; control for the full effect not named in the record; active = well fitted activation curve with a large enough effect; inconclusive = small, poorly fitted or top-dose-only effect, or another doubt; inactive = no such curve, though single readings can be large or run the other way; cell line not stated here;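 also: phosphodiesterase inhibitor Ro 20-1724 added with compounds to block cAMP breakdown; potency is read from the fitted curve at half-maximal effect; nearly all actives have a fitted effect of over 60% in size; about a fifth of the inactives were tested at one dose only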
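Cells in DMEM/10% FBS with G418 were pretreated with compounds in DMSO plus […] (300 uM stock) for 30 min at 37C. cAMP was measured by HTRF (cAMP-d2 plus anti-cAMP antibody-K) after 30 min at room temperature.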
Numbers without * were called inactive; ? = inconclusive; nt = not tested or not shown; [ ] = remark or other dose.

Below each SMILES: gsp antag, TRPV1 PAM, ClpP mod, CtBP-E1A inh, Menin-MLL FL inh, Sfp inh, gsp agonist
Cc1ccc(C2(C)NC(=O)N(CC(=O)c3ccc4c(c3)OCCO4)C2=O)cc1 (stereo not given)
    2%, -4, -7.4%, -21, nt, nt, -1%
CC1CCCCC1NC(=O)COC(=O)COc1ccccc1F (stereo not given)
    -1%, nt, 28µM*, 4, nt, nt, 12%[15.4 µM]
COc1ccc(NC(=O)CN2CCN(c3ccc(Cl)cc3)CC2)c(OC)c1
    -3%, -6, 23%, -1, 0.4, -30%, -9%
CCCn1nc(C(=O)NCCc2ccc(S(N)(=O)=O)cc2)c2ccccc2c1=O
    -1%, 14, -8.1%, 1, -0.3, 6%, 0%
CN(C)C(CNC(=O)c1cccc(S(=O)(=O)NCc2ccccc2)c1)c1ccco1 (stereo not given)
    6%, ?, nt, 11, nt, nt, 10%[15.4 µM]
COc1cc(C(=O)Nc2ccc(NC(=O)c3ccccc3Cl)nc2)cc(OC)c1OC
    -10%, 1, nt, -14, 4.7, 24%, 7%[15.4 µM]
CN(C)S(=O)(=O)c1ccc(C(=O)/C=C/c2cccnc2)cc1
    9%, 5, nt, 8, -3.3, 5%, -8%
COc1ccc(N2CCN(C(=O)CSc3nc4c(c(=O)n(C)c(=O)n4C)n3C(C)C)CC2)cc1
    -10%, 6, -1.6%, 15, -1.9, 11%, ?
COc1ccc2ccccc2c1/C=N/NC(=S)NCCN1CCOCC1
    -13%, 8, -13%, -12, 5.2, 3%, 25%
Cc1ccc(C(=O)N2CCN(c3ccc(NC(=O)c4cccnc4Cl)cc3)CC2)cc1
    -6%, 1, nt, -4, -1.3, -3%, 1%
CCOc1ccc2cc(C(=O)c3ccccc3)c(=O)oc2c1
    20%, -4, -3.0%, 10, 9.5, 2%, 6%[15.4 µM]
CC(C)CCN1CCC(CN2CCNC(=O)C2=O)CC1
    9%, nt, -2.5%, 5, nt, nt, nt
Cc1ccc(-c2cc(=O)[nH]c(NCc3ccccc3)n2)cc1
    7%, nt, nt, -13, nt, nt, 7%
O=C(CN1CCN(C(=O)C2CCCO2)CC1)Nc1ccc(Br)cc1 (stereo not given)
    7%, -1, 0.7%, 10, nt, 8%, -11%
O=c1c(-c2nn[nH]n2)coc2ccc(Cl)cc12
    -12%, 7, -1.8%, -9, 0.5, 10%, 3%[15.4 µM]
O/C(=C\c1ccc2ccccc2n1)c1ccc(O)cc1O
    -19%, -8, nt, 2, ?, -2%, -8%[15.4 µM]
COC(=O)c1ccc(N2CCCCC2)c(N)c1
    ?, 1, -7.6%, -2, 5.0, 9%, 8%
CN1C(=O)c2ccccc2C(C(=O)NCc2ccco2)C1c1c[nH]c2ccccc12 (stereo not given)
    5%, -9, 5.6%, 8, -0.4, -2%, 18%
CCCC(=O)Nc1ccc(NC(=O)c2cccc(OC)c2)nc1
    -10%, 15, 0.3%, 3, -0.4, 4%, -11%
COc1cccc(C2=NOC(C(=O)Nc3ccc4c(c3)OCO4)C2)c1OC (stereo not given)
    -2%, 12, 0.9%, nt, 2.5, 0%, 16%
Nc1c(Cl)ncnc1N/N=C/c1ccncc1
    -7%, -2, nt, 0, 3.8, 79µM*, 11%
C=CCSc1nc2ccccc2n1Cc1nnc(-c2cccs2)o1
    -18%, -9, -14%, -6, -1.7, -9%, -21%
O=C(N1CCN(c2ccccn2)CC1)C(Cl)(Cl)Cl
    8%, -9, -1.0%, 1, 9.9, -2%, -26%
Cc1ccccc1C(=O)NC(C(=O)Nc1nc2c(s1)CCCC2)C(C)C (stereo not given)
    -8%, 3, 2.3%, -3, 2.4, 3%, -10%
Cc1ccc(NS(=O)(=O)c2cccc(C(=O)N3CCCCCC3)c2)cc1
    -18%, 12, 0.3%, 10, nt, nt, -32%[inhibitor]
Cc1ccc(NC(=O)C2C3C=CC4(O3)C2C(=O)N(CCN2CCOCC2)C4C(=O)NC2CCCCC2)cc1C (stereo not given)
    -2%, 4, nt, -7, -6.4, 17%, -23%
COc1ccc(C(=O)N2CCN=C2c2ccccc2)cc1OC
    14%, 3, -2.9%, 4, -1.8, 11%, 0%
COc1cc(OC)cc(C(=O)NNC(=O)CCc2nc3ccccc3c(=O)[nH]2)c1
    2%, 2, -2.6%, 0, nt, nt, -25%
CN(c1ccccc1)S(=O)(=O)c1cccc(C(=O)NCc2ccccc2)c1
    -26%, -2, -0.6%, nt, nt, nt, 8%
COc1ccc(C)cc1NC(=O)C(=O)NNC(=O)c1ccco1
    5%, 11, 6.3%, -8, 1.9, 5%, -64%[inhibitor]
c1ccc(-c2cn(C[C@H]3CC[C@H](Cn4cc(-c5ccccn5)nn4)O3)nn2)nc1
    2%, -4, 1.6%, -90*, 4.6, -14%, ?
COCCNC(=O)c1onc(CSc2ccncc2)c1C(=O)NCCOC
    -2%, 6, 0.2%, 2, -8.2, 16%, nt
Cc1nn(C(C)C(=O)NCCCN2CCCCCC2)c(=O)c2c1sc1ccccc12 (stereo not given)
    13%, 19, 3.0%, -1, nt, 1%, 27%
Cc1ccc(OCCSc2nc(N)cc(N)n2)cc1
    0%, 3, nt, -12, -0.2, 16%, 7%[15.4 µM]
CCC1CCCCN1S(=O)(=O)c1ccc(C(=O)N(CCCN(C)C)c2nc3cc4c(cc3s2)OCO4)cc1 (stereo not given)
    -8%, -18, -0.5%, ?, nt, -12%, -2%
CCOC(=O)C1CCN(c2cc3c(cc2NC(=O)c2ccccc2Br)n(C)c(=O)n3C)CC1
    ?, -12, -1.0%, -10, nt, -10%, -31%
Cc1cc(C(=O)OCC(=O)Nc2ccccc2Br)c(C)o1
    -7%, nt, nt, 15, nt, nt, 6%
COc1ccc(OC)c(NC(=O)CCNS(=O)(=O)c2cc(Br)cnc2N)c1
    -24%, 5, -5.0%, -3, nt, 10%, -4%
Cc1ccc2oc(=O)c3cnn(CC(=O)N(CCCN4CCOCC4)Cc4ccco4)c3c2c1
    -2%, -2, -6.7%, -8, -2.0, 11%, ?
NS(=O)(=O)c1ccc(CCNC(=O)C2CCN(C(=O)Nc3ccccc3)CC2)cc1
    7%, nt, -2.4%, -20, nt, nt, -18%[15.4 µM]

In the list so far, 4 have bromine.
Below each SMILES: gsp antag, TRPV1 PAM, ClpP mod, CtBP-E1A inh, Menin-MLL FL inh, Sfp inh, gsp agonist
O=C(CN1CCN(C(=O)C2CCCO2)CC1)Nc1ccc(Br)cc1 (stereo not given)
    7%, -1, 0.7%, 10, nt, 8%, -11%
CCOC(=O)C1CCN(c2cc3c(cc2NC(=O)c2ccccc2Br)n(C)c(=O)n3C)CC1
    ?, -12, -1.0%, -10, nt, -10%, -31%
Cc1cc(C(=O)OCC(=O)Nc2ccccc2Br)c(C)o1
    -7%, nt, nt, 15, nt, nt, 6%
COc1ccc(OC)c(NC(=O)CCNS(=O)(=O)c2cc(Br)cnc2N)c1
    -24%, 5, -5.0%, -3, nt, 10%, -4%

(cont.)
Below each SMILES: gsp antag, TRPV1 PAM, ClpP mod, CtBP-E1A inh, Menin-MLL FL inh, Sfp inh, gsp agonist
CN(C)c1ccc(/C=N/NC(=O)c2cc(=O)[nH]c3ccccc23)cc1
    -2%, 20, -4.1%, nt, 1.2, 5%, -8%
O=C(CSc1nnc(NC(=O)c2c(F)cccc2F)s1)NCc1ccc(F)cc1
    -5%, 6, -1.1%, -3, nt, nt, ?
CCOC(=O)c1oc2cc(O)cc(C)c2c1C
    19%, nt, 13µM*, 2, nt, nt, 26%
O=C(CSc1nc(C2CC2)nc2ccccc12)Nc1ccccc1N1CCOCC1
    -18%, -7, 4.9%, 3, 1.3, 7%, -32%[inhibitor]
C[C@@H]1CN([C@@H](C)CO)C(=O)c2cc(NC(=O)Nc3ccccc3)ccc2O[C@@H](C)CCCCO[C@H]1CN(C)C(=O)Nc1ccc(C(F)(F)F)cc1
    nt, nt, -7.7%, 4, nt, nt, 2%
C[C@H]1C=C(C(=O)NCc2nc3ccccc3[nH]2)O[C@@H](OCc2ccc(CO)cc2)C1
    -2%, ?, -2.7%, -9, 1.2, 20%, nt
O=C(CC(C(=O)O)N1CCOCC1)Nc1ccc(Cl)cc1 (stereo not given)
    7%, -1, 0.5%, -1, -0.8, -9%, 8%
CC(C)Cc1ccc(CN2CCCC(NC(=O)c3ccnn3C)C2)cc1 (stereo not given)
    -1%, -11, -0.6%, 6, nt, 9%, -40%[inhibitor]
COc1ccccc1NC(=O)C(C)OC(=O)CC1CCCCC1 (stereo not given)
    5%, -24, 0.7%, 9, nt, nt, -24%
Nc1c(C(=O)NC2CCCC2)c2nc3ccccc3nc2n1/N=C/c1cccnc1
    5%, nt, nt, 2, nt, nt, -1%[15.4 µM]
COc1ccc(S(=O)(=O)NCC2CCCN(C(=O)C=C(C)C)C2)cc1 (stereo not given)
    5%, 2, -0.1%, 6, 3.2, -4%, -14%
CCCCOC(=O)Nc1ccc(S(=O)(=O)Nc2nccs2)cc1
    -8%, 9, nt, 7, -0.3, 7%, 10%[15.4 µM]
COc1ccc(C/C(C)=N/NC(=O)c2ccncc2)cc1
    7%, -11, nt, 3, 4.5, -6%, 10%[15.4 µM]
CC1=CN2C(=N)/C(=C/c3ccc(C)o3)C(=O)N=C2S1
    1%, -12, -3.5%, -7, 15, -2%, 8%
Cn1c(C(=O)N(Cc2ccccc2)Cc2cccs2)cc2sccc21
    -8%, -4, -2.9%, -11, -0.6, 1%, -34%[inhibitor]
Cc1ccc(S(=O)(=O)N2CCN(CC(=O)NC3CCCc4ccccc43)CC2)c(C)c1 (stereo not given)
    -26%, 3, -5.1%, -10, -1.3, -19%, 3%
O=C1CN(C(=O)COC(=O)CCS(=O)(=O)c2ccccc2)c2ccccc2N1
    7%, 22, 0.9%, -5, nt, nt, -12%
COc1ccc(NC(=O)Nc2nnc(C(C)C)s2)cc1
    -12%, 12, -1.3%, -4, -0.2, -2%, -15%
CN(C)c1ccc2nsnc2c1[N+](=O)[O-]
    8%, -6, nt, 0, -2.0, 11%, ?
Cc1cc(C)c(C(=O)COC(=O)C2CC3CCCC(C2)C3=O)c(C)c1 (stereo not given)
    1%, 2, -3.6%, -22, nt, nt, ?
